RanGTP-Impb inh: inhibitors of RanGTP-importin-beta interaction, primary screen, biochemical, FRET, CFP-Ran, YFP-importin-beta, homogeneous; inhibition, % (concentration not given with the values); Ran GTPase (GTP-bound) - importin-beta complex; cell-free CFP-Ran/YFP-importin-beta FRET ratio; hit rate 1.1% among 300,000;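 active = most replicates above 15%; inconclusive = exactly half above 15%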;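 note: 0% = DMSO wells and 100% = Ran loaded with GDP instead of GTP; wells of about 40 µL received 100 nL stock; the first replicate is given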
LANA-H2A inh: blockers of LANA interaction with H2A/H2B – biochemical, FP readout, HTS, primary screen; hit rate 0.6% among 320,000; Protein LANA1 (Human herpesvirus 8 type P (isolate GK18)), Q9QR71; cell-free LANA-H2A/H2B peptide, fluorescence polarization; inhibition, % (concentration not given with the values); in the data active = inhibition mostly above about 10%, no sharp cut-off; inactive = mostly below about 6.7%;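 note: stock transfer was 7.5 nL into about 10 µL; 0% = median of vehicle wells and 100% = median of positive control wells; one replicate is shown; the record names a cut of 25% in any replicate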
Target sequence (Q9QR71 whole entry, looked up): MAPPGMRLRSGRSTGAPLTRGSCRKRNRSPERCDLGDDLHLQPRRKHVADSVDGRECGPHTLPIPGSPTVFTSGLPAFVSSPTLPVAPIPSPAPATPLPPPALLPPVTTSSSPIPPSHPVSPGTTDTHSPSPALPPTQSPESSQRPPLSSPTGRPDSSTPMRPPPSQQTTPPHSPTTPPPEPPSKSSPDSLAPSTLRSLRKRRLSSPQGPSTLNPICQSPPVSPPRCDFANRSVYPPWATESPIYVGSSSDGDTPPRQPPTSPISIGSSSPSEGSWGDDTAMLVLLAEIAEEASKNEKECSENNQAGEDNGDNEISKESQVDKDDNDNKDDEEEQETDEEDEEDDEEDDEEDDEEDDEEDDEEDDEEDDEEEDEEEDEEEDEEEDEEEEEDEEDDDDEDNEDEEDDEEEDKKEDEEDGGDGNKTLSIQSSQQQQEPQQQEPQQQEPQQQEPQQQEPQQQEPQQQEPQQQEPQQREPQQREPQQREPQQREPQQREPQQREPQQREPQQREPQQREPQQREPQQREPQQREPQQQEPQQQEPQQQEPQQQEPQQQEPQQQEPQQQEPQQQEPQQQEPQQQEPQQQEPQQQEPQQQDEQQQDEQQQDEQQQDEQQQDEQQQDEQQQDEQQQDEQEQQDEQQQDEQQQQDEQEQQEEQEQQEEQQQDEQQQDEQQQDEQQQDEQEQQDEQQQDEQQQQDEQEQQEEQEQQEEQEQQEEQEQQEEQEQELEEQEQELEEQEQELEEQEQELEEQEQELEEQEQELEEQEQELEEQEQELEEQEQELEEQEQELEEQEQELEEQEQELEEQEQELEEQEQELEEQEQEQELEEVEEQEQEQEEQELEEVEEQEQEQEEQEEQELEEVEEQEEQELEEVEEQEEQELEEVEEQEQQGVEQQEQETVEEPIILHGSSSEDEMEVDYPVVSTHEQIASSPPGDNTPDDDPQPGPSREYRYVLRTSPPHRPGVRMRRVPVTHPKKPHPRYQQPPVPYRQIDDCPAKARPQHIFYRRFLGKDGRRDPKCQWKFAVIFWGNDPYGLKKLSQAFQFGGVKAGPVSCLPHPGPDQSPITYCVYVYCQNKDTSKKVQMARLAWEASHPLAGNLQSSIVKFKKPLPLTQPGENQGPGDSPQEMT
T cruzi inh: inhibitors of intracellular T. cruzi growth, primary screen, luminescence, NIH3T3 host cells; T. cruzi beta-gal in NIH3T3, 90 h; inhibition, % (no concentration beside the values); hit rate 1.4% among 300,000; AID 1885, 2009;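 active = mean inhibition across valid replicates above about 55%, limit read from the data; inconclusive = mean below that limit but half or more replicates reach it; inactive = mean below it, under half of replicates reach it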;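 note: signal also drops with host cell toxicity which is not excluded here; 0% = plate median of DMSO wells and 100% = zero luminescence signal; higher percent means less beta-gal luminescence so fewer parasites; stock transfer was 50 nL into about 50 µL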
Calb FLC: C. albicans growth inhibition with fluconazole, primary screen, CaCi-2 strain, Alamar Blue fluorescence. C. albicans CaCi-2 (fluconazole-resistant clinical isolate) + fluconazole, 48 h. growth inhibition, % (concentration not given with the values). hit rate 0.57% among 300,000. AID 1979, 2009;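 active = most replicates above 75%; inconclusive = exactly half above 75%; inactive = most below 75%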;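 note: all wells also contain fluconazole at 8 µg/ml as a sub-toxic cotreatment; 0% = median of DMSO wells and 100% = median of geldanamycin control wells; wells of about 8 µL received 7.5 nL stock; the first replicate is given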
Beta apoptosis: inhibitors of cytokine-induced beta cell apoptosis, primary screen, luminescence; INS-1E cytokine-induced death, ATP luminescence, 48 h; percent of positive-control rescue, neutral wells zero; protection from apoptosis, % (test concentration not listed); hit rate 0.8% among 300,000; AID 435005, 2010;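 active = all replicates at 75% or more, or half of them and the mean; inconclusive = half reach 75% but not the mean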;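 note: 0% = cytokine-treated negative control wells and 100% = positive control rescue; higher means more ATP so stronger rescue from cytokine killing; wells of about 40 µL received 100 nL stock; the first replicate is given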
Beta2AR agonist: beta2AR agonists driving receptor internalization, primary screen, cell-based, FAP fluorogen, flow cytometry; hit rate 0.43% among 340,000; Am2.2-beta2AR cells; reference of the scale not given here; AID 504454, 2011; response, % (no concentration beside the values);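 active = response above a set limit, near 3 SD of response in nonfluorescent compounds, cut at about 42% in these data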;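 note: stock transfer was 100 nL into about 11 µL; a reference agonist was the positive control; negative values mostly stem from fluorescent compounds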
UCH37 DUB inh: inhibitors of human UCH37 deubiquitinase, primary screen, biochemical, Ub-AMC cleavage, fluorescence. purified proteasome/UCH37. hit rate 0.33% among 330,000. inhibition, % (no concentration beside the values). Ubiquitin carboxyl-terminal hydrolase isozyme L5 (Homo sapiens), Q9Y5K5;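 active = mean of two replicates above 20%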;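 note: 0% = compound-free wells with enzyme and 100% = wells lacking proteasome; stock transfer was 100 nL into about 20 µL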
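Schedule: 30 min plus 25 min, room temperature / Material: human UCH37 within purified proteasomes / Technique: AMC fluorescence intensity at 355/460 nm / Buffer or medium: pH 7.4 Tris-HCl (50 mM) with ovalbumin, ATP-MgCl2, DTT / Controls: wells without proteasome as full block, compound-free enzyme plus substrate as uninhibited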
A1 inh: caspase 3/7 activation in MEF A1-2A-BIM cells, primary screen, A1 inhibitor project, cell-based, luminescence, HTS; Caspase-Glo 3/7 luminescence, 3 h; percent of clofoctol response, vehicle zero; hit rate 0.066% among 330,000; AID 2462, 2010; caspase activation, % (test concentration not listed);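 active = over half of replicate activation scores above 10%, or exactly half above 10 with the replicate mean above 10; inconclusive = replicate mean below 10 yet half the replicates above 10; inactive = over half of replicates below 10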;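 note: wells of about 30 µL received 50 nL stock; many hits fall short of the cut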
Active calls of the source: *; ? = inconclusive; / = not tested or not shown.

SMILES | RanGTP-Impb inh | LANA-H2A inh | T cruzi inh | Calb FLC | Beta apoptosis | Beta2AR agonist | UCH37 DUB inh | A1 inh
COC(=O)C1C(=O)C(C(=O)c2ccc([N+](=O)[O-])cc2)C(=O)CC1(C)C (configuration not stated) | 2.8 | 2.1 | -13 | 5 | -5 | -3 | 0.5 | 0.7
Clc1ccc(CO/N=C2\CCCc3nonc32)cc1 | -2.8 | 1.5 | 22 | -30 | -3 | 4 | / | -1.2
O=C(C[n+]1ccc(C(=O)N/N=C/c2ccc(OCc3ccccc3)cc2)cc1)c1ccccc1 | 3.3 | -3.0 | 1 | 23 | 2 | -6 | / | -1.9
CC1CCCN(C(c2ccccc2)c2sc3ncnn3c2O)C1 (configuration not stated) | 4.2 | 1.9 | -3 | 3 | -7 | 39 | 0.6 | -0.6
CCCN(C(=O)Cc1ccc(S(=O)(=O)N2CCOCC2)s1)c1c(N)n(Cc2ccccc2)c(=O)[nH]c1=O | -4.7 | -1.2 | 13 | -13 | -3 | -2 | -6.7 | 0.2
COc1cccc(S(=O)(=O)Nc2cccc(C(=O)N3CCCCCC3)c2)c1 | ? | -2.2 | 9 | -2 | 3 | -1 | 0.0 | 0.0
COc1ccc(CCNC(=O)C(C)OC(=O)c2cccs2)cc1OC (configuration not stated) | -0.1 | 4.6 | -10 | 8 | -2 | 0 | 1.7 | -0.1
CCOC(=O)c1c(C)[nH]c(C(=O)OCc2ccccc2F)c1C | 5.2 | 1.7 | 38 | 0 | 15 | -1 | 0.5 | 1.2
COc1ccc(C(=O)COC(=O)CCCn2c(=O)oc3ccccc32)cc1 | -3.3 | 1.2 | -7 | -16 | 0 | 2 | 4.6 | 0.0
Nc1cc(=O)[nH]c(SCC(=O)N2CCC(Cc3ccccc3)CC2)n1 | / | / | / | / | -4 | -5 | 4.0 | -0.4
COc1cccc(NC(=O)CN(C)C(=O)CC2Sc3ccccc3NC2=O)c1 (configuration not stated) | / | 5.4 | / | / | -3 | 0 | 1.3 | -0.3
O=C1CC(=Nc2ccccc2)NN1c1ccccc1 | 1.2 | -3.0 | -1 | 23 | 21 | 8 | 2.2 | 0.5
Cc1c(C(=O)N2CCCCC2)c(S(=O)(=O)N(C)Cc2ccco2)c(C)n1C | 3.7 | 2.9 | -5 | 1 | / | 1 | 0.9 | 0.1
Cc1ncc(CN2CCCC(C(=O)Nc3ccc(-c4cccc(F)c4)cc3)C2)cn1 (configuration not stated) | 3.1 | 0.5 | 19 | -1 | -1 | 91* | -1.5 | 0.3
NNC(=O)CN1C(c2cccc(Cl)c2)=Nc2ccc(Br)cc2C1c1ccccc1 (configuration not stated) | 8.9 | -1.0 | 25 | 20 | -3 | 3 | 3.5 | -0.3
COc1cccc(NC(=O)COC(=O)C2CC2)c1 | / | 3.4 | / | / | -1 | 6 | 0.6 | -1.2
Cc1nc(Nc2nc(-c3ccccc3)cc(=O)[nH]2)nc2ccccc12 | -1.0 | 7.7 | 24 | 3 | 3 | -4 | 1.1 | -0.2
O=C(CSc1nnc(Cc2ccc3c(c2)OCO3)n1C1CCCCC1)NC1CCCC1 | 1.8 | 3.6 | 14 | 9 | -3 | -10 | 3.3 | 1.0
CC(C)(C)c1ccc(S(=O)(=O)O/N=C2/CCCCC2c2ccc([N+](=O)[O-])cc2[N+](=O)[O-])cc1 (configuration not stated) | -0.4 | 0.3 | 21 | -7 | -2 | -4 | / | -0.2
COc1ccc(CN2[C@@H](CC(=O)O)c3ccccc3S2(=O)=O)cc1 | -0.2 | -0.7 | -2 | -4 | 1 | 3 | -1.3 | 1.4
Cc1ccsc1/C=N/NC(=O)c1nnn(-c2nonc2N)c1C | -1.2 | 3.6 | -2 | -1 | -4 | -8 | / | -1.0
CCN(CC)c1ccc(S(=O)(=O)N2CCOCC2)cc1NC(=O)CN1C(=O)NC2(CCCC2)C1=O | 1.7 | -6.0 | 12 | -12 | 4 | 7 | -1.9 | -0.4
O=C(NCCO)C(=O)NCC(c1ccc2c(c1)OCO2)N1CCN(c2ccc(F)cc2)CC1 (configuration not stated) | 3.3 | 0.1 | -15 | -17 | -4 | -3 | 5.2 | 0.3
O=S(=O)(NCc1nnc2ccccn12)c1ccc(Cl)cc1 | / | -3.8 | / | / | 0 | -1 | 3.5 | -0.9
CCc1cc(C(=O)OC)c(NC(=O)CC2SC(=NC)N(C)C2=O)s1 (configuration not stated) | -4.1 | 0.2 | 7 | 8 | 3 | 4 | 3.1 | 0.2

Other results follow:
SMILES | RanGTP-Impb inh | LANA-H2A inh | T cruzi inh | Calb FLC | Beta apoptosis | Beta2AR agonist | UCH37 DUB inh | A1 inh
COc1cccc2cc(C(=O)NCc3ccc(Cl)cc3)c(=N)oc12 | 7.9 | 2.1 | -14 | -5 | 2 | 0 | 2.7 | 1.6
Cc1c(C(=O)Oc2ccc(-c3cnc4ccccc4n3)cc2)cccc1[N+](=O)[O-] | 1.9 | 8.3 | 1 | 5 | -10 | 4 | 5.1 | -8.9
COc1ccc(/C=C/C(=O)Nc2cccc(S(=O)(=O)N3CCCC3)c2)cc1OC | -4.8 | -9.1 | -8 | 9 | 3 | 2 | -21 | -0.4
CC(=O)c1c(C)nc(-c2ccc(Cl)cc2)nc1NC(=O)C(C)C | -5.6 | -2.4 | 0 | 0 | 1 | 12 | -1.6 | 0.6
CC1=NNC(=O)C1CCC(=O)N/N=C/C(Br)=C/c1ccccc1 (configuration not stated) | 2.3 | 3.2 | -10 | 4 | -6 | -3 | / | 0.0
O=C(Nc1nccs1)c1ccc(Cl)c(S(=O)(=O)N2CCCCC2)c1 | 1.9 | -1.3 | 6 | -1 | -1 | -3 | 0.6 | 0.0
COc1ccc(-c2nc3cc(NC(=O)c4ccc5c(c4)OCO5)ccc3o2)cc1 | -0.5 | 0.7 | -2 | ? | 6 | 4 | -89 | -0.2
Cc1cc(C(=O)CCC(=O)NCC(=O)Nc2c(C)cccc2C)c(C)s1 | / | 1.4 | / | / | 0 | 9 | 4.9 | 0.4
O=C(Nc1ccccc1N1CCCCC1)c1cccc(OC(F)F)c1 | 1.0 | 0.1 | 36 | -7 | 6 | -16 | 1.0 | 1.6
O=C(NC1CCCCC1)C(c1ccccc1)N1CCC2(CC1)OCCO2 (configuration not stated) | 3.3 | -0.7 | 9 | 11 | -3 | 3 | 1.3 | -0.1
Cc1ccccc1C(=O)Nc1ccc2nc3n(c(=O)c2c1)CCC3 | ? | -2.1 | -4 | 6 | -2 | -3 | -2.6 | 0.5
N#CC1=C(N)C(C#N)(C#N)C(c2cccnc2)C2COCC=C12 (configuration not stated) | 2.9 | 4.8 | 1 | 0 | -2 | 5 | -7.8 | 0.6
N#CC1=C(N)SC(N)=C(C#N)C1c1cccc(Oc2ccccc2)c1 | 24* | -3.3 | 19 | 19 | / | 19 | 6.1 | 0.2
Cc1cc(C)c(NC(=O)CN(C)CC(=O)Nc2cccc(S(=O)(=O)N(C)c3ccccc3)c2)c(C)c1 | / | 1.5 | / | / | 4 | 25 | 1.2 | 0.3
O=C(c1cccnc1)N1CCCC(Nc2ccc(F)cc2)C1 (configuration not stated) | 2.0 | 2.6 | -3 | 0 | -4 | 5 | 1.3 | 1.9
CCc1ccc2[nH]c(C)c(CN3CCCCCC3)c(=O)c2c1 | 1.8 | 2.0 | 11 | 3 | -5 | -1 | 3.0 | -0.6
CCN(CC(=O)NCc1cccs1)C(=O)CCCOc1ccccc1 | / | -0.2 | / | / | -5 | 20 | 4.7 | -0.4
Cc1ccccc1C(=O)NC1CCCN(Cc2ccccc2F)C1 (configuration not stated) | 3.4 | -0.3 | 4 | 4 | -7 | -2 | 3.2 | 1.0
COc1cccc(NC(=O)COC(=O)c2sccc2C)c1 | / | -0.6 | / | / | -6 | 10 | 0.4 | -0.3
CCn1nc(C)c(CNC(=O)C2CCC(=O)N(CCc3ccc(OC)cc3)C2)c1C (configuration not stated) | 8.9 | -6.7 | -5 | -2 | 1 | 2 | 1.2 | -1.7
O=C1C(CCCNC(=S)NCc2ccccc2)NC(=S)N1Cc1ccccc1 (configuration not stated) | -0.2 | 2.5 | 16 | 4 | -1 | -3 | 3.3 | 0.2
CC(Nc1cc(N2CCCC2)ccc1[N+](=O)[O-])c1ccccc1 (configuration not stated) | 3.9 | 6.1 | / | -2 | 9 | 5 | 5.4 | 0.4
Cn1c(NC(=O)c2ccccc2C(F)(F)F)cc(=O)n(C)c1=O | 2.1 | 0.5 | 9 | 4 | -4 | 0 | 5.0 | -0.2
C=CCNC(=S)NNc1nc2c(c(=O)[nH]1)C1(CCCCC1)Cc1ccccc1-2 | 3.5 | -35 | -2 | ? | 0 | 5 | -56 | -1.2
Cc1noc(C)c1C(=O)Nc1sc(C)c(-c2ccccc2)c1C#N | 110* | 1.4 | 0 | 53 | 33 | -10 | 7.2 | 0.2

The listing continues:
SMILES | RanGTP-Impb inh | LANA-H2A inh | T cruzi inh | Calb FLC | Beta apoptosis | Beta2AR agonist | UCH37 DUB inh | A1 inh
Cc1ccccc1COc1ccc(/C(O)=C2/C(=O)C(=O)N(CCCn3ccnc3)C2c2ccco2)cc1 (configuration not stated) | 2.4 | -5.1 | 6 | -23 | 3 | -7 | 7.3 | -0.6
CCOC(=O)C(NC(=O)c1ccccc1)(OCC1(CC)COC1)C(F)(F)F (configuration not stated) | -1.6 | 0.6 | -11 | 12 | -7 | -3 | 2.9 | 0.6
CCOc1ccc(CCNC(=O)c2cnccn2)cc1OCC | 3.9 | 1.1 | -2 | -1 | 0 | -3 | 3.0 | -0.5
O=C(CNc1ccc(F)cc1)N/N=C1\CCCc2ccccc21 | -1.1 | -6.3 | 11 | -3 | 0 | -5 | / | -0.6
O=C(CN1C(=O)NC2(CCc3ccccc3C2)C1=O)Nc1ccc(F)cc1 (configuration not stated) | -0.3 | 0.6 | 15 | 3 | -6 | 5 | 4.6 | -0.7
O=C(c1cccc(NS(=O)(=O)c2ccccc2)c1)N1CCCCC1 | -4.3 | 6.3 | -9 | -3 | -1 | 0 | 5.3 | 0.0
CC1Cc2cc(S(=O)(=O)N3CCC(C(=O)N(C)Cc4ccco4)CC3)ccc2N1C(=O)C1CCC1 (configuration not stated) | 0.8 | 3.6 | -7 | -2 | 9 | -13 | 0.3 | 0.2

Whole records as entered above. Order of values: RanGTP-Impb inh	LANA-H2A inh	T cruzi inh	Calb FLC	Beta apoptosis	Beta2AR agonist	UCH37 DUB inh	A1 inh
Results for CCOc1ccc(CCNC(=O)c2cnccn2)cc1OCC = 3.9	1.1	-2	-1	0	-3	3.0	-0.5
Results for O=C(CN1C(=O)NC2(CCc3ccccc3C2)C1=O)Nc1ccc(F)cc1 (configuration not stated) = -0.3	0.6	15	3	-6	5	4.6	-0.7
Results for CCOC(=O)C(NC(=O)c1ccccc1)(OCC1(CC)COC1)C(F)(F)F (configuration not stated) = -1.6	0.6	-11	12	-7	-3	2.9	0.6
